Yeast UUG start – modulators of start codon recognition fidelity in yeast. S. cerevisiae UUG-firefly luciferase reporter, luminescence/redox ratio. activity score, % at 18.7 µM. actives 0.13% (n = 350,000). AID 602363;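 active = replicate mean at a twofold rise or more, about +100% in these data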;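 also: firefly luciferase made from a UUG start codon reports start codon fidelity; reporter light over untreated wells divided by growth signal over untreated wells; some hits fall short of that in this replicate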
Env fusion inh – blocks HIV Env-driven cell-cell fusion. HeLa-JRFL Env/CEM21 cell fusion, luciferase. inhibition, % at 12.3 µM. actives 1.1% (n = 360,000);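 active = mean replicate inhibition score of at least 50 and every replicate individually at or above 50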;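 also: 0% = plate neutral controls and 100% = maraviroc near 300 nM; one replicate is shown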
* = called active by the depositor; [ ] = dose if it differs, or a comment. A portion of the library; rates above refer to the full screens.

SMILES	Yeast UUG start	Env fusion inh
C[C@@H]1CN([C@@H](C)CO)C(=O)c2cc(NC(=O)Cc3ccccc3)ccc2O[C@@H](C)CCCCO[C@H]1CN(C)C(=O)Nc1cccc2ccccc12	20	-36[16.7 µM]
O=C(O)C1=C[C@H](c2ccc3c(c2)Cc2ccccc2-3)C[C@H](OCCCCO)O1	-9	-55[16.7 µM]
C[C@H]1CCCCO[C@H](CN(C)Cc2ccc3c(c2)OCO3)[C@@H](C)CN([C@@H](C)CO)C(=O)c2cc(NC(=O)CCC(F)(F)F)ccc2O1	5	7[16.7 µM]
O=C(C[C@@H]1CC[C@H](NC(=O)c2cccc(F)c2)[C@@H](CO)O1)NCc1ccc(Oc2ccccc2)cc1	145*	11[16.7 µM]
CCCC#Cc1cnc2c(c1)C(=O)N([C@@H](C)CO)C[C@@H](C)[C@H](CN(C)C(=O)Cc1ccccc1)O2	1	-5[16.7 µM]
CNC[C@@H]1Oc2ccc(NC(=O)Nc3c(C)noc3C)cc2C(=O)N([C@H](C)CO)C[C@@H]1C	-27	-8[16.7 µM]
CNC[C@H]1Oc2c(NS(=O)(=O)c3cn(C)cn3)cccc2C(=O)N([C@@H](C)CO)C[C@H]1C	-16	-3[16.7 µM]
C[C@@H]1CN([C@@H](C)CO)C(=O)c2cc(NC(=O)Nc3ccccc3)ccc2O[C@H]1CN(C)S(=O)(=O)c1cn(C)cn1	11	-33[16.7 µM]
Cc1ccc(S(=O)(=O)Nc2ccc3c(c2)CC(=O)N([C@H](C)CO)C[C@H](C)[C@H](CN(C)S(=O)(=O)c2ccccc2)O3)cc1	12	80*[16.7 µM]
C[C@@H]1CN([C@H](C)CO)C(=O)c2cc(NS(C)(=O)=O)ccc2O[C@H]1CN(C)Cc1ccc(C(=O)Nc2ccccc2N)cc1	0	17[16.7 µM]
Cc1noc(C)c1NC(=O)N(C)C[C@@H]1OCCCC[C@H](C)Oc2ccc(NC(=O)Nc3ccc(F)cc3)cc2C(=O)N([C@H](C)CO)C[C@@H]1C	2	3[16.7 µM]
Cc1cc(C(=O)Nc2cccc3c2O[C@H](CN(C)C(=O)Nc2cccc4ccccc24)[C@@H](C)CN([C@@H](C)CO)C3=O)n(C)n1	-19	19[16.7 µM]
CC(C)NC(=O)Nc1cccc2c1O[C@H](CN(C)Cc1ccc(-c3ccccc3)cc1)[C@@H](C)CN([C@@H](C)CO)C2=O	6	19[16.7 µM]
COc1ccc(NC(=O)N(C)C[C@H]2OCCCC[C@@H](C)Oc3ccc(NC(=O)C4CCCCC4)cc3C(=O)N([C@H](C)CO)C[C@H]2C)cc1	3	3[16.7 µM]
CCC(=O)Nc1ccc2c(c1)C(=O)N(C)[C@H]1CC[C@H](CC(=O)NCCOC)O[C@@H]1CO2	-7	5[16.7 µM]
COc1ccc(-c2cnc3c(c2)C(=O)N([C@@H](C)CO)C[C@H](C)[C@H](CN(C)Cc2ccccn2)O3)cc1	-20	-10[16.7 µM]
C[C@H]1CN([C@@H](C)CO)C(=O)c2cc(-c3ccccc3)cnc2O[C@H]1CN(C)Cc1ccc(C(=O)O)cc1	-3	-31[16.7 µM]
C[C@@H]1CCCCO[C@@H](CN(C)Cc2ccc(C(=O)O)cc2)[C@@H](C)CN([C@@H](C)CO)C(=O)c2cc(NC(=O)C3CCCCC3)ccc2O1	13	-11[16.7 µM]
NC(=O)[C@@H]1[C@H]2C(=O)O[C@H](c3ccccc3)[C@H](c3ccccc3)N2[C@H](c2ccc(O)cc2)[C@@]12C(=O)Nc1ccc(C#CC3=CCCCC3)cc12	15	2[16.7 µM]
C[C@H](CO)N1C[C@H](C)[C@H](CN(C)C(=O)NC2CCCCC2)Oc2ccc(NS(=O)(=O)c3ccc(F)cc3)cc2C1=O	1	16[16.7 µM]
C[C@H](CO)N1C[C@H](C)[C@H](CN(C)CC2CCCCC2)Oc2ccc(NS(=O)(=O)c3ccccc3)cc2C1=O	-4	22[16.7 µM]
C[C@H](CO)N1C[C@H](C)[C@H](CN(C)C(=O)c2ccc(F)cc2)Oc2ncc(C#CC3CC3)cc2C1=O	1	15[16.7 µM]
Cc1ccc(-c2cnc3c(c2)C(=O)N([C@@H](C)CO)C[C@H](C)[C@@H](CN(C)C(=O)c2ccncc2)O3)cc1	-14	-12[16.7 µM]
CN(C)C(=O)C[C@H]1C=C[C@@H](NS(=O)(=O)c2ccccc2)[C@H](CO)O1	-10	-4[16.7 µM]
CC(C)C#Cc1ccc2c(c1)O[C@H](CN(C)S(C)(=O)=O)[C@@H](C)CN([C@@H](C)CO)S2(=O)=O	1	12[16.7 µM]

Structures from the list above that have fluorine:
SMILES	Yeast UUG start	Env fusion inh
C[C@H]1CCCCO[C@H](CN(C)Cc2ccc3c(c2)OCO3)[C@@H](C)CN([C@@H](C)CO)C(=O)c2cc(NC(=O)CCC(F)(F)F)ccc2O1	5	7[16.7 µM]
O=C(C[C@@H]1CC[C@H](NC(=O)c2cccc(F)c2)[C@@H](CO)O1)NCc1ccc(Oc2ccccc2)cc1	145*	11[16.7 µM]
Cc1noc(C)c1NC(=O)N(C)C[C@@H]1OCCCC[C@H](C)Oc2ccc(NC(=O)Nc3ccc(F)cc3)cc2C(=O)N([C@H](C)CO)C[C@@H]1C	2	3[16.7 µM]
C[C@H](CO)N1C[C@H](C)[C@H](CN(C)C(=O)NC2CCCCC2)Oc2ccc(NS(=O)(=O)c3ccc(F)cc3)cc2C1=O	1	16[16.7 µM]
C[C@H](CO)N1C[C@H](C)[C@H](CN(C)C(=O)c2ccc(F)cc2)Oc2ncc(C#CC3CC3)cc2C1=O	1	15[16.7 µM]

Continued.
SMILES	Yeast UUG start	Env fusion inh
C[C@@H]1CN([C@H](C)CO)C(=O)c2cc(NC(=O)Nc3ccc(C(F)(F)F)cc3)ccc2O[C@@H]1CN(C)Cc1ccccc1	10	4[16.7 µM]
C[C@H](O)C#Cc1ccc2c(c1)O[C@H](CN(C)C(=O)Cc1ccccn1)[C@@H](C)CN([C@H](C)CO)S2(=O)=O	-5	-1[16.7 µM]
C[C@@H]1CCCCO[C@@H](CN(C)S(=O)(=O)c2ccccc2)[C@@H](C)CN([C@H](C)CO)C(=O)c2cc(NC(=O)Nc3cccc4ccccc34)ccc2O1	-1	-16[16.7 µM]
O=C(CN1CCOCC1)NCC[C@H]1CC[C@@H](NC(=O)Nc2ccc(F)cc2)[C@@H](CO)O1	-11	-29[16.7 µM]
O=C(NCC[C@H]1CC[C@H](NS(=O)(=O)c2cccc(F)c2)[C@H](CO)O1)C1CCOCC1	-10	1[16.7 µM]
CN(C)c1ccc2c(c1)[C@@H]1C[C@@H](CC(=O)NC3CCCC3)O[C@H](CO)[C@@H]1O2	-13	20[16.7 µM]
C[C@H](CO)N1C[C@H](C)[C@@H](CN(C)C(=O)C2CCCCC2)OCCCC[C@H](C)Oc2ccc(NC(=O)c3ccccc3)cc2C1=O	2	-142[16.7 µM]
Cc1noc(C)c1NC(=O)N(C)C[C@@H]1Oc2cc(C#CCN(C)C)ccc2S(=O)(=O)N([C@@H](C)CO)C[C@@H]1C	13	5[16.7 µM]
C[C@H](CO)N1C[C@H](C)[C@@H](CN(C)S(=O)(=O)c2ccccc2)Oc2cc(-c3cccc(F)c3)ccc2S1(=O)=O	-13	18[16.7 µM]
C[C@H](CO)N1C[C@H](C)[C@H](CN(C)S(C)(=O)=O)Oc2cc(C3=CCCCC3)ccc2S1(=O)=O	13	4[16.7 µM]
N#C[C@@H]1[C@@H](c2ccc(-c3ccncc3)cc2)[C@@H](CO)N1C(=O)C1CCC1	-11	13[16.7 µM]
COc1ccc(C#Cc2ccc3c(c2)[C@]2(C(=O)N3)[C@H](c3ccc(OCCO)cc3)N3[C@H](c4ccccc4)[C@H](c4ccccc4)OC(=O)[C@H]3[C@@H]2C(=O)N2CCc3cc(OC)c(OC)cc3C2)cc1	3	1[16.7 µM]
COc1ccc(S(=O)(=O)N(C)C[C@@H]2Oc3ccc(NC(=O)Nc4ccccc4)cc3CC(=O)N([C@H](C)CO)C[C@@H]2C)cc1	5	23[16.7 µM]
CS(=O)(=O)Nc1ccc2c(c1)[C@@H]1C[C@@H](CC(=O)NCc3ccccc3)O[C@@H](CO)[C@@H]1O2	-1	18[16.7 µM]
C[C@H](CO)N1C[C@H](C)[C@H](CN(C)C(=O)C2CC2)Oc2ncc(C#Cc3ccccc3)cc2C1=O	-2	11[16.7 µM]
COCC(=O)N(C)C[C@@H]1Oc2cc(C#CC3CC3)ccc2S(=O)(=O)N([C@H](C)CO)C[C@@H]1C	18	8[16.7 µM]
C[C@@H]1CN([C@H](C)CO)C(=O)Cc2cc(NS(=O)(=O)c3cn(C)cn3)ccc2O[C@H]1CN(C)Cc1ccccc1	-6	37[16.7 µM]
C[C@H](CO)N1C[C@H](C)[C@H](CN(C)C(=O)c2ccccc2)OCCCC[C@H](C)Oc2ccc(N(C)C)cc2C1=O	3	11[16.7 µM]
CCCNC(=O)Nc1ccc2c(c1)C(=O)N(C)[C@@H]1CC[C@H](CC(=O)O)O[C@H]1CO2	-19	-46[16.7 µM]
COc1ccc(S(=O)(=O)Nc2ccc3c(c2)C(=O)N([C@@H](C)CO)C[C@@H](C)[C@H](CN(C)Cc2ccccc2)O3)cc1	3	0[16.7 µM]
C[C@@H]1CN([C@H](C)CO)S(=O)(=O)c2ccc(C#C[C@@H](C)O)cc2O[C@H]1CN(C)CC1CCCC1	4	-15[16.7 µM]
COc1ccc(CNC(=O)C[C@@H]2CC[C@@H](NC(=O)CN(C)C)[C@@H](CO)O2)cc1	-5	-7[16.7 µM]
COc1ccc(CNC(=O)C[C@@H]2CC[C@H](NS(=O)(=O)c3cccc(OC)c3)[C@H](CO)O2)cc1	-12	-1[16.7 µM]
C[C@@H]1CCCCO[C@@H](CN(C)Cc2ccncc2)[C@@H](C)CN([C@H](C)CO)C(=O)c2cc(NC(=O)CCCN(C)C)ccc2O1	8	12[16.7 µM]
C[C@@H]1CCCCO[C@@H](CN(C)S(=O)(=O)c2cn(C)cn2)[C@@H](C)CN([C@@H](C)CO)C(=O)c2cc(NC(=O)CCC(F)(F)F)ccc2O1	3	28[16.7 µM]

Complete entries, looked up by structure. Screens in order: Yeast UUG start, Env fusion inh
Record of COc1ccc(CNC(=O)C[C@@H]2CC[C@@H](NC(=O)CN(C)C)[C@@H](CO)O2)cc1 → -5, -7[16.7 µM]
Record of O=C(CN1CCOCC1)NCC[C@H]1CC[C@@H](NC(=O)Nc2ccc(F)cc2)[C@@H](CO)O1 → -11, -29[16.7 µM]

Next part:
SMILES	Yeast UUG start	Env fusion inh
CCCN1C[C@@H](C)[C@@H](OC)CN(C)C(=O)c2ccc(NS(C)(=O)=O)cc2OC[C@@H]1C	3	16[16.7 µM]
C[C@@H]1CN([C@H](C)CO)C(=O)Cc2cc(NC(=O)Nc3ccc(C(F)(F)F)cc3)ccc2O[C@@H]1CN(C)C(=O)Nc1ccccc1	15	-3[16.7 µM]
CN(C)C(=O)C[C@H]1C=C[C@H](NC(=O)NC2CCCCC2)[C@@H](CO)O1	-11	-1[16.7 µM]
C[C@H](O)C#Cc1cnc2c(c1)C(=O)N([C@@H](C)CO)C[C@H](C)[C@H](CN(C)Cc1ccc(-c3ccccc3)cc1)O2	7	-7[16.7 µM]
C[C@H](CO)N1C[C@H](C)[C@H](CN(C)Cc2ccc(C(F)(F)F)cc2)OCCCC[C@H](C)Oc2ccc(NC(=O)c3ccncc3)cc2C1=O	16	-2[16.7 µM]
Cc1ccc(S(=O)(=O)Nc2ccc3c(c2)C(=O)N([C@H](C)CO)C[C@H](C)[C@H](CN(C)CC2CCCCC2)O3)cc1	9	-12[16.7 µM]
CN(C)CC(=O)N[C@H]1C=C[C@@H](CC(=O)NCc2ccc(Cl)cc2)O[C@@H]1CO	-10	-3[16.7 µM]
CO[C@H]1CN(C)C(=O)c2ccc(NC(=O)C3CCCCC3)cc2OC[C@H](C)N(C(=O)c2ccccc2)C[C@H]1C	15	-30[16.7 µM]
Cc1ccc(S(=O)(=O)N[C@@H]2C=C[C@H](CC(=O)NCCc3ccncc3)O[C@@H]2CO)cc1	-12	9[16.7 µM]
C[C@H]1CN([C@@H](C)CO)C(=O)Cc2cc(NS(C)(=O)=O)ccc2O[C@@H]1CN(C)S(=O)(=O)c1cccs1	-1	11[16.7 µM]
Cc1ccccc1S(=O)(=O)NCC[C@H]1CC[C@H](NC(=O)C2CC2)[C@H](CO)O1	3	3[16.7 µM]
C[C@@H]1CCCCO[C@H](CN(C)C(=O)Nc2ccc(C(F)(F)F)cc2)[C@H](C)CN([C@H](C)CO)C(=O)c2cc(N(C)C)ccc2O1	-6	15[16.7 µM]
COc1ccc(CN(C)C[C@H]2OCCCC[C@H](C)Oc3ccc(NC(=O)CCCN(C)C)cc3C(=O)N([C@H](C)CO)C[C@@H]2C)cc1	-1	-11[16.7 µM]
Cc1noc(C)c1S(=O)(=O)N(C)C[C@H]1Oc2c(cccc2N(C)C)C(=O)N([C@@H](C)CO)C[C@H]1C	-13	-5[16.7 µM]
CCCNC(=O)N(C)C[C@H]1Oc2ncc(C#CC3CC3)cc2C(=O)N([C@@H](C)CO)C[C@@H]1C	-4	3[16.7 µM]
C[C@H]1CN([C@@H](C)CO)C(=O)Cc2cc(N(C)C)ccc2O[C@@H]1CN(C)Cc1ccc(C(=O)O)cc1	0	-4[16.7 µM]
Cc1noc(C)c1S(=O)(=O)N(C)C[C@H]1OCCCC[C@H](C)Oc2ccc(NS(=O)(=O)c3cn(C)cn3)cc2C(=O)N([C@H](C)CO)C[C@@H]1C	17	23[16.7 µM]
COc1ccc(S(=O)(=O)Nc2ccc3c(c2)CC(=O)N([C@@H](C)CO)C[C@H](C)[C@@H](CN(C)C(=O)NC(C)C)O3)cc1	13	-10[16.7 µM]
C[C@@H]1CN([C@@H](C)CO)C(=O)c2cccc(NC(=O)C3CC3)c2O[C@H]1CN(C)S(=O)(=O)c1cn(C)cn1	-2	-4[16.7 µM]
O=C(C[C@H]1CC[C@H]2[C@@H](COC[C@@H](O)CN2C(=O)c2ccc(F)cc2)O1)NC1Cc2ccccc2C1	-3	-9[16.7 µM]

Compound activity as filed in PubChem BioAssay.
